# Screening results (PubChem)
# miR-21 FLuc: qHTS Assay for Modulators of miRNAs and/orActivators of miR-21. Potency, µM (doses to about 38.3 µM), for the others: at the highest dose reporter change, positive = more light. HeLa miR-21 FLuc reporter, luciferase, 48 h. 340,000 tested, under 10 active; active = well fitted rising curve with a large enough effect; inconclusive = small, poorly fitted or top-dose-only effect; inactive = no such curve, though single readings can be large or run the other way;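 further: % of control where 0% means no effect; miR-21 action dims this reporter so a rising signal means less miR-21 action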
#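 HeLa miR-21-FLuc reporter line, endogenous miR-21; 2000 cells/well in DMEM/10% FBS; compound titration up to ~40uM final, 48 h, 37 degree Celsius; luciferase detection reagent, 15 min lysis, CCD luminescence.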
# Rango complex inh: qHTS Assay for Inhibitors of Rango (Ran-regulated importin-beta cargo) - Importin beta complex formation; 340,000 compounds, 0.031% hits; Importin subunit beta-1 (Homo sapiens), Q14974; Rango CFP/YFP FRET sensor + importin beta, 45 min; AID 540263, 2011; Potency, µM (top dose mostly 92.2 µM), for inactives: at the top dose inhibition of complex formation; active = rising FRET ratio curve, often small or poorly fitted; inconclusive = mostly compound fluorescence or quenching in the first reads; inactive = flat curves in all reads;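 further: potency means the concentration at half of the fitted maximal effect; 0% = DMSO wells and 100% = buffer wells lacking importin beta; nearly all actives have a fitted effect of over 15% in size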
# Target sequence (Q14974 whole entry, looked up): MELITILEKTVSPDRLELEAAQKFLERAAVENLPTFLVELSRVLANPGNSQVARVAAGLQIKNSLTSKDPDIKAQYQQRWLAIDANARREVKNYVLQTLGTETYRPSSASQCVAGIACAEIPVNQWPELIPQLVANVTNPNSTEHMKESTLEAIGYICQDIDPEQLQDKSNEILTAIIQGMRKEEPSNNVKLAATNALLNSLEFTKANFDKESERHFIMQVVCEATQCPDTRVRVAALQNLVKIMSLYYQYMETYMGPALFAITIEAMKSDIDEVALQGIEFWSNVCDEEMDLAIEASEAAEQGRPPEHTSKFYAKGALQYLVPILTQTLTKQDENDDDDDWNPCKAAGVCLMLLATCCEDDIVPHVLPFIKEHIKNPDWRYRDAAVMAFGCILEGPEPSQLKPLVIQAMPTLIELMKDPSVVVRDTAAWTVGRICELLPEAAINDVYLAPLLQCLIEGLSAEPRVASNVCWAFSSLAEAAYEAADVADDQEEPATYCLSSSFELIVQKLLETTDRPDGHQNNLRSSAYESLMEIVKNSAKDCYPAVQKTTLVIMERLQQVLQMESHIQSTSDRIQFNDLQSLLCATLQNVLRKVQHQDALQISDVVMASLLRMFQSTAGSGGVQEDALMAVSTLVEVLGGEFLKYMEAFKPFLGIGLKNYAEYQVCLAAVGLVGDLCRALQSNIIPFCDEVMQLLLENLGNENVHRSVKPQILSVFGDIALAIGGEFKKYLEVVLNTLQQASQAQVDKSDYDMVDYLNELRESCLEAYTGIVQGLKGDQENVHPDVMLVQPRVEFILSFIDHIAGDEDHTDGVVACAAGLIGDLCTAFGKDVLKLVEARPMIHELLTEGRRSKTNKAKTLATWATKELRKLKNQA
#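 FRET biosensor (snurportin 1 IBB flanked by EYFP and cerulean), 50 nM, with compound 5 min, then 0.125 microM importin beta in PBS, 1 mM DTT, 0.02% Tween-20, 0.1% BSA. CFP/YFP ratio read after 45 min at room temperature; pre-read flags interference.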
# Rango dissoc inh: qHTS Assay for Inhibitors of RanGTP induced Rango (Ran-regulated importin-beta cargo) - Importin beta complex dissociation; Biochemical FRET Rango-importin beta, RanGTP-induced dissociation; AID 540253, 2011; Potency, µM (top dose mostly 46.1 µM), inactives show at the highest dose activity change, negative = inhibition; Snurportin-1 (Homo sapiens) + GTP-binding nuclear protein Ran (Homo sapiens) + Importin …; 340,000 compounds, 0.071% hits; active means falling FRET ratio curve, often poorly fitted, with flat reads before Ran was added; inconclusive means other falling curves, or compound fluorescence or quenching; inactive means flat or rising ratio curve;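 further: potency means the concentration at half of the fitted maximal effect; % of control where 0% means no effect; nearly all actives have a fitted effect of over 45% in size; -100% = wells without RanGTP and RCC1; the record marks most hits as doubtful in a second field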
#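 Rango (0.1 uM)–importin beta (0.25 uM) complex; RanGTP-RCC1 trigger; 45 min RT; CFP/YFP FRET read.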
# GLA inh pH 4.5: qHTS Assay for Inhibitors of Human alpha-Galactosidase at pH 4.5; purified enzyme, 4-MU-alpha-Gal fluorescence, pH 4.5; 230,000 tested, under 10 active; AID 1467, 2008; activity change, negative = inhibition, % at 105 µM; Alpha-galactosidase A (Homo sapiens), P06280; inconclusive = small, poorly fitted or top-dose-only inhibition, or a rising curve; inactive = flat fitted curve, though single readings scatter; no compound was filed as active;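 further: 0% = full activity with enzyme and -100% = basal without enzyme; dose as in the result columns while the protocol names 77 µM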
# Starred values were filed as active, the others as inactive; ? = inconclusive; nt = not tested or not shown; & = joins results of further samples. Not all compounds are listed; count on the stated rates, not on these rows.
miR-21 FLuc,compound,Rango complex inh,Rango dissoc inh,GLA inh pH 4.5
4.1%,Cc1cnc(NC(=O)Cn2cnc3c2c(=O)n(C)c(=O)n3C)s1,-1.6%,-13.8%,4.5
3.2%,O=C(CC12CC3CC(CC(C3)C1)C2)NCC(c1ccc(F)cc1)N1CCOCC1 (stereo not given),-0.1%,8.8%,1.9
-61.9%,CN(Cc1ccsc1)C(=O)CCc1nnc(CCCc2ccccc2)o1,-0.1%,-6.6%,7.4
2.2%,Cc1ccc(OCCNC(=O)Cn2cnc3c(=O)n(C)c(=O)n(C)c32)cc1C,0.3%,-11.1%,3.4
-0.9%,O=C(CN(C(=O)C1COc2ccccc2O1)c1ccccc1)NCC1CCCO1 (stereo not given),1.1%,-15.8%,0.4
20.0%,COc1ccccc1/C=C/C1(C(=O)NC2CCCC2)CC(=O)N1c1ccccc1 (stereo not given),0.2%,7.1%,0.5
17.1%,O=C(NCc1ccncc1)c1cc(-c2ccc(Cl)cc2)oc1C(F)(F)F,-3.1%,23.9%,-1.1
nt,COc1ccc2nc(-c3ccccc3)[nH]c(=O)c2c1,-3.5%,2.2%,nt
nt,CC(=O)O[C@@H]1[C@@H](OC(C)=O)[C@H](n2ccc3cc([N+](=O)[O-])ccc32)OC[C@@H]1OC(C)=O,1.1%,0.3%,nt
-4.1%,Cc1cc(C)c(S(C)(=O)=O)c(Oc2cccc(C(F)(F)F)c2)n1,2.6%,9.8%,-5.4
-25.2%,CCN1CCN(c2cc(C)c3cc(NC(=O)c4ccc(Br)o4)ccc3n2)CC1,0.0%,-8.2%,1.6
3.6%,O=C1C(CSCc2ccccc2)NC(=S)N1c1ccccc1 (stereo not given),0.9%,-14.8%,-10.9
nt,CC(Oc1ccc(Br)cc1)C(=O)NCC1(N2CCCCC2)CCCCC1 (stereo not given),3.3%,-14.5%,nt
-0.4%,CC(=O)Nc1ccc(S(=O)(=O)NCCC(=O)Nc2cccc(Cl)c2)cc1,3.8%,-5.0%,nt
nt,CN(C)c1ccc(C(c2ccc(N(C)C)cc2)C(O)c2ccccc2)cc1 (stereo not given),-0.6%,2.4%,nt
0.1%,O=Cc1cn(CC(=O)N2CCCCC2)c2ccccc12,-3.0%,-7.1%,2.7
-2.9%,O=C(NCCOc1ccccc1)c1ncn[nH]1,4.0%,16.3%,3.4
0.3%,COc1cccc(-n2nnnc2SCC(=O)Nc2cccc(NC(C)=O)c2)c1,-0.6%,-5.2%,-3.8
-34.5%,O=[N+]([O-])c1cc(-c2cnc3ccccc3n2)ccc1Oc1ccc(Cl)cc1,-3.5%,-6.4%,5.3
-1.3%,COc1ccc2[nH]cc(C3N4CC5(C)CN3CC(C)(C4)C5=O)c2c1 (stereo not given),-4.8%,-11.8%,nt
-27.8%,O=C(NN1C(=O)c2ccccc2C1=O)c1ccc2c(c1)C(=O)N(CC1CCCO1)C2=O (stereo not given),3.0%,12.5%,0.3
-0.4%,COC(=O)C(C(=O)OC)C(C[N+](=O)[O-])c1ccc(OC)c(OC)c1 (stereo not given),-1.5%,-15.3%,-3.5
-12.3%,COC(=O)c1c(NC(=O)CN2CCOCC2)sc2c1CCC(C)C2 (stereo not given),-2.4%,0.1%,-9.3
0.5%,C=CCNC(=O)C1CCC(=O)N1S(=O)(=O)c1ccc(C)cc1 (stereo not given),1.2%,20.5%,nt
-11.1%,O=C(NC(=S)NNC(=O)c1cnccn1)c1ccc(F)cc1,2.3%,-9.1%,3.9

# Brought forward from above: two entries, followed by the next part.
miR-21 FLuc,compound,Rango complex inh,Rango dissoc inh,GLA inh pH 4.5
0.5%,C=CCNC(=O)C1CCC(=O)N1S(=O)(=O)c1ccc(C)cc1 (stereo not given),1.2%,20.5%,nt
-11.1%,O=C(NC(=S)NNC(=O)c1cnccn1)c1ccc(F)cc1,2.3%,-9.1%,3.9
-36.6%,NS(=O)(=O)c1cccnc1Nc1cccc(Cl)c1Cl,-0.5%,-1.3%,-12.5
1.6%,COc1cc(/C=N/NC(=O)C[n+]2ccccc2)cc(OC)c1OC,-2.6%,7.3%,-5.5
-0.3%,Cc1ccc(NC(=S)N2CCC(NC(=O)c3ccc(C)cc3)CC2)cc1,-5.2%,3.9%,nt
nt,CC(Oc1ccc(S(=O)(=O)N2CCCC2)cc1[N+](=O)[O-])C(=O)NC(C)c1ccccc1 (stereo not given),-1.1%,21.4%,nt
-11.3%,O=C(N/N=C/c1ccc([N+](=O)[O-])cc1)c1cccc2cc[nH]c12,3.0%,-10.2%,-1.5
-15.9%,CC1(C)CSC(=NCCc2ccccc2)N1C(=O)c1ccc(C#N)cc1,-0.9%,-8.3%,7.1
6.9%,C=CCn1c(CCNC(=O)c2cccs2)nnc1SCC(=O)Nc1cccc(Cl)c1C,0.5%,5.4%,-0.5
nt,CCN(C(=O)CSc1ncccn1)c1cccc2ccccc12,-2.0%,9.2%,nt
0.8%,COc1cc(C(=O)NC2CC(C)(C)CC(C)(C)C2)ccc1OC1CCN(C(C)=O)CC1,?,15.8%,nt
-1.5%,COC(=O)c1cn(NC(=O)Cc2ccc(OC)c(OC)c2)c(=O)c2ccccc12,0.4%,8.3%,-23.9
0.6%,O=C(NCCc1ccccc1)C1CCC(=O)N(CCCN2CCCC2=O)C1 (stereo not given),-0.4%,16.0%,nt
5.8%,Cn1cnnc1Sc1ccc(/C=C/C(=O)c2ccc(O)cc2)cc1[N+](=O)[O-],0.6%,20.8%,3.2
-4.8%,CCOC(=O)c1cc(C#N)c(SCC(=O)c2cc(C#N)c(SC)nc2C)[nH]c1=O,?,?,6.0
-4.1%,O=C(CN1C(=O)CC(c2ccccc2)S(=O)(=O)c2ccccc21)N1CCCC1 (stereo not given),-1.6%,0.1%,-5.0
-15.0%,O=C1c2ccccc2C(=O)N1CCc1ccccn1,3.2%,1.0%,4.0
3.0%,CCOC(=O)C1CCN(C(=O)C(C)c2ccc([N+](=O)[O-])cc2)CC1 (stereo not given),3.6%,0.3%,2.9
-2.4%,O=C(O)c1ccc(/C=N/NC(=O)C2CC2(c2ccccc2)c2ccccc2)cc1 (stereo not given),nt,nt,?
2.1%,O=C(CSC1=Nc2ccccc2C2=NC(CC(=O)NCc3ccco3)C(=O)N12)NCc1ccco1 (stereo not given),0.6%,-1.5%,6.2
-3.5%,Cc1ccc(C2CC(=O)Oc3cc(O)ccc32)cc1 (stereo not given),0.5%,-2.5%,-10.1&10.3
-0.3%,CC(=O)N1N=C(c2ccncc2)CC1c1ccccc1O (stereo not given),0.0%,14.0%,5.6
0.1%,O=C(Cc1ccccc1)NNC(=O)c1ccc(Br)o1,6.0%,1.0%,nt
nt,COc1ccccc1CN(C)C(=O)c1cccc(S(=O)(=O)N2CCCc3ccccc32)c1,-0.4%,7.8%,nt
-0.2%,COc1ccccc1C1C=C(c2ccccc2)Nc2nnnn21 (stereo not given),?,?,6.3
-0.8%,CCOC(=O)N1CCC(NC(=O)C2CCCN(S(C)(=O)=O)C2)CC1 (stereo not given),0.6%,1.8%,0.4
1.6%,COc1cc(C(=O)Nc2ccc3c(c2)ncn3C)cc(OC)c1OC,1.1%,-3.5%,nt

# As entered above.
# Under Rango dissoc inh, `O=C(Cc1ccccc1)NNC(=O)c1ccc(Br)o1` is entered as 1.0%
# Under GLA inh pH 4.5, `O=C1c2ccccc2C(=O)N1CCc1ccccn1` is entered as 4.0
# Under Rango dissoc inh, `CCN(C(=O)CSc1ncccn1)c1cccc2ccccc12` is entered as 9.2%
# Under Rango dissoc inh, `COc1ccccc1CN(C)C(=O)c1cccc(S(=O)(=O)N2CCCc3ccccc32)c1` is entered as 7.8%

# Entries of single compounds from above.
# COc1ccc2nc(-c3ccccc3)[nH]c(=O)c2c1 is listed with miR-21 FLuc = nt; Rango complex inh = -3.5%; Rango dissoc inh = 2.2%; GLA inh pH 4.5 = nt
# COC(=O)c1cn(NC(=O)Cc2ccc(OC)c(OC)c2)c(=O)c2ccccc12 is listed with miR-21 FLuc = -1.5%; Rango complex inh = 0.4%; Rango dissoc inh = 8.3%; GLA inh pH 4.5 = -23.9

# More compounds
miR-21 FLuc,compound,Rango complex inh,Rango dissoc inh,GLA inh pH 4.5
0.2%,Cc1ccc([N+](=O)[O-])cc1NC1OC(CO)C(O)C1O (stereo not given),0.4%,-3.6%,-6.6
-2.3%,CCN(CC)C(=O)/C(=C/c1ccc(F)cc1)NC(C)=O,0.0%,-7.1%,5.7
1.1%,O=C(Cc1ccc([N+](=O)[O-])cc1)Nc1ccc(O)cc1C(=O)O,0.0%,14.5%,5.3
-7.2%,Cc1ccnc(NC(=O)CCC(=O)N(CC(=O)NC2CCCCC2)c2ccc3c(c2)OCO3)c1,2.4%,-4.7%,-2.3
2.6%,CC(C)c1ccc(NC2CCCN(C(=O)c3ccnc(Cl)c3)C2)cc1 (stereo not given),0.4%,24.9%,nt
-4.3%,O=C(NNC(=O)c1cccc2ccccc12)c1ccccc1O,-2.0%,-5.5%,nt
nt,CCN(CC(=O)NCc1cccs1)C(=O)c1ccc(S(=O)(=O)Nc2ccccc2Cl)cc1,0.9%,-8.1%,nt
-5.2%,CC1=CN2C(=N)/C(=C/c3ccc(Sc4ccc(Cl)cc4)o3)C(=O)N=C2S1,?,?,2.7
nt,Cc1cc(F)ccc1S(=O)(=O)Nc1ccc(C(=O)N2CCCCC2)cc1,-1.4%,0.8%,nt
nt,CC(=O)c1ccc(S(=O)(=O)N2CCN(C(=O)CN3C(=O)NC4(CCCC4)C3=O)CC2)cc1,-3.4%,13.3%,nt
nt,CCCCn1c(SCC(=O)Nc2oc(C)c3c(C)n[nH]c(=O)c23)nc2cc(S(N)(=O)=O)ccc21,3.9%,11.9%,nt
4.6%,CCCNC(=O)COC(=O)c1ccc(N2CCCC2)c([N+](=O)[O-])c1,1.0%,8.7%,4.9
-4.9%,COc1ccc(C(C(=O)NC2CCCCC2)N(C(=O)c2sc(C)nc2C)c2ccccc2C)cc1 (stereo not given),-1.0%,-21.6%,2.3
4.3%,Cc1ccc(S(=O)(=O)N(CC(=O)N(C(C)C)C(C)C)C(=O)N2CCN(C)CC2)cc1,-3.3%,-13.7%,nt
-1.6%,CCN1C(=O)/C(=C\c2cccs2)C(C(=O)OC)=C1C,2.0%,-1.2%,-2.4
-0.4%,Cc1ccc(NC(=O)NCCN2CCN(c3ccccc3)CC2)cc1Cl,-4.5%,4.4%,nt
nt,O=C(CCNS(=O)(=O)c1cccc(C(F)(F)F)c1)NC1CC1,-0.8%,3.7%,nt
-1.2%,Cc1ccc(CS(=O)(=O)c2ncn[nH]2)cc1,0.0%,-3.8%,14.1
nt,Cc1ccc(C(=O)OCC(=O)NC(=O)NCc2ccccc2)cc1C,-0.4%,-1.5%,nt
-24.8%,CCOC(=O)c1ccc(NC(=O)c2ccc3c(c2)OCO3)cc1,?,-10.9%,-2.3
nt,CN(C)c1ccc(C(=O)OCc2cc(=O)n3ccsc3n2)cc1,0.0%,-5.7%,nt
1.5%,CCc1ccc(-n2c(=O)c3c(C)c(C(=O)N(C)C)sc3n(CC(=O)NCC3CCCO3)c2=O)cc1 (stereo not given),-3.4%,-8.7%,-1.8
12.2%,Cc1ccccc1OCCn1c(C)nc2ccccc21,-0.5%,-3.9%,nt
-50.0%,CCCC(=O)n1nc(-c2ccco2)nc1SCc1ccccc1,0.4%,0.3%,0.9
1.8%,COc1ccccc1NC(=O)NCC(=O)Nc1c(C)cccc1C,0.4%,-11.4%,3.2
-37.1%,COC(=O)c1ccc(N=Cc2c(C(F)(F)F)[nH][nH]c2=O)cc1,7.5%,22.8%,-1.5
0.0%,Cc1noc(C)c1S(=O)(=O)N1CCN(c2ccc([N+](=O)[O-])cc2)CC1,-2.8%,-6.2%,nt
-32.4%,COC(=O)C(=Nc1ccccc1)/C(C(=O)C(=O)N(C)c1ccccc1)=C(\O)c1ccccc1,?,-18.1%,-1.9
